# Screening data as filed in PubChem BioAssay.
# Rce1 inhib = blocks yeast Ras-converting enzyme | yeast membranes, quenched prenylated peptide cleavage fluorescence | Q03530 | calls only | 290,000 compounds, 0.27% hits | AID 2563;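 active = fall in fluorescence gain of 50% or more versus controls, with final raw signal at or below 3038400; inconclusive = same 50% fall but final raw signal above 3038400; inactive = fall in fluorescence gain under 50%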;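 note: plate controls were neutral control wells for no effect and wells lacking membranes for full effect; tested at 10 µM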
# Target sequence (Q03530 whole entry, looked up): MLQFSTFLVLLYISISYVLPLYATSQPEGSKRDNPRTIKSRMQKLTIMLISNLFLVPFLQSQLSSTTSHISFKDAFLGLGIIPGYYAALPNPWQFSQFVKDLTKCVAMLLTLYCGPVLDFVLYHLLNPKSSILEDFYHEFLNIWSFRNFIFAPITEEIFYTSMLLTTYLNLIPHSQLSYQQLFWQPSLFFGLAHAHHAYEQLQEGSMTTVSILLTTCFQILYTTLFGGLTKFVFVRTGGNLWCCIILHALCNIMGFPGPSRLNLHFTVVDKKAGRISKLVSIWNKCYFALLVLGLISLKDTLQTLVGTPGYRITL
# Env fusion inh = HIV envelope-mediated fusion inhibition; 360,000 compounds, 1.1% hits; HeLa-JRFL Env/CEM21 cell fusion, luciferase; AID 651610; inhibition, % at 12.3 µM;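 active = mean replicate inhibition score of at least 50 and every replicate individually at or above 50; inconclusive = only one of the two criteria met; inactive = mean below 50 and not all replicates reaching 50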;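 note: 0% = plate neutral controls and 100% = maraviroc near 300 nM; one replicate is shown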
# eIF4H FP inh = inhibitors of RNA binding by human eIF4H | AID 2012 | inhibition, % at 35 µM | eIF4H fluorescence polarization binding assay | 290,000 compounds, 0.94% hits;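 active = 50% or more with normal probe brightness, or confirmed in later tests; inconclusive = above 50% with abnormal brightness, or retests that disagree; inactive = below 50% or failed in later tests; about a fifth of its hits are not listed in these tables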;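 note: calls also rest on retests at 20 µM and on dose response follow-up; 0% = protein and probe with vehicle and 100% = probe without protein; strong numbers were not always called active; many hits fall short of the cut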
# Yeast UUG start = modulators of start codon recognition fidelity in yeast; S. cerevisiae UUG-firefly luciferase reporter, luminescence/redox ratio; activity score, % at 18.7 µM; 350,000 compounds, 0.13% hits; AID 602363;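 active = replicate mean at a twofold rise or more, about +100% in these data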;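 note: firefly luciferase made from a UUG start codon reports start codon fidelity; reporter light over untreated wells divided by growth signal over untreated wells; some hits fall short of that in this replicate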
# PABP polyA inh = blocks human PABP binding to poly(A) RNA | P11940 | AID 2014 | 290,000 compounds, 1% hits | fluorescence polarization | inhibition, % at 35 µM;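 active = 50% or more with normal probe brightness, or confirmed in later tests; inconclusive = above 50% with abnormal brightness, or retests that disagree; inactive = below 50% or failed in later tests; about a fifth of its hits are not listed in these tables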;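 note: calls also rest on retests at 20 µM and on dose response follow-up; controls were probe without protein and protein plus probe with vehicle; some compounds called inactive have numbers as strong as hits; many hits fall short of the cut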
# Target sequence (P11940 whole entry, looked up): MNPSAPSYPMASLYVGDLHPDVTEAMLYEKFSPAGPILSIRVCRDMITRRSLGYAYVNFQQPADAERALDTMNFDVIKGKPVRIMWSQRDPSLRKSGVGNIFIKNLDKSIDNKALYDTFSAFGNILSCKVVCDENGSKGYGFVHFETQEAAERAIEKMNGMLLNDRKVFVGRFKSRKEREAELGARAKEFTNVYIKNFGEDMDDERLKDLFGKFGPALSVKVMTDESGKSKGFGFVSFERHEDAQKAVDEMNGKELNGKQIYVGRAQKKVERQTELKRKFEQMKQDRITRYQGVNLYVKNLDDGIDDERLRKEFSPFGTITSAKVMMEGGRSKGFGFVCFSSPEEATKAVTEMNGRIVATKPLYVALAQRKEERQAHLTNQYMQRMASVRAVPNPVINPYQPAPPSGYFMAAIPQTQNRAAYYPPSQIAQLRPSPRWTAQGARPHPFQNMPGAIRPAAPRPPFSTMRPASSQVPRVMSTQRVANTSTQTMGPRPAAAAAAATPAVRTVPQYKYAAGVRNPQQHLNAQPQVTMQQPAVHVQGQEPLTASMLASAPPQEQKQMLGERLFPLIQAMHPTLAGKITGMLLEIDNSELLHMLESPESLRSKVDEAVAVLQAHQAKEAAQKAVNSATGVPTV
# MT1-MMP act inh = blocks activation of human MT1-MMP | P50281 | HT1080 RFP-PRO-GFP cells, GFP/RFP ratio fluorescence, overnight; percent of plate control window, DMSO zero | GFP/RFP ratio change, % at 20 µM | 360,000 compounds, 0.061% hits;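 active = GFP/RFP ratio change of at least 30% with cell ATP level not reduced by more than half and red fluorescence within 50% of control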; note: strong numbers were not always called active
#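 Assay system: RFP-PRO-GFP reporter HT1080 cells; read-out basis: GFP/RFP fluorescence ratio; benchmarks: DMSO wells and RFP-L50D-GFP cells; doses: 20 µM single dose, 1% DMSO; schedule: overnight cell settling, then overnight compound exposure, 37 °C, 5% CO2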
# CSC inhib = cancer stem cell inhibition | inhibition, % at 7.5 µM | cancer stem cell-like cells viability, luminescence | AID 2717 | 300,000 compounds, 1.1% hits;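 active = mean at 75% or more and at least half the replicates too; inconclusive = mean and replicates disagree; tested in HMLE shEcad cells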;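 note: 0% = median of negative and 100% = median of positive control wells; the first replicate is given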
# eIF4H FP inh retest = further read-out of eIF4H FP inh, marked with its call; inhibition, %; compound at 20 µM; confirmation average;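 mean of two retest wells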
# PABP polyA inh retest = also measured in PABP polyA inh; calls as there; inhibition, %; compound at 20 µM; confirmation repeats;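 mean of two retest wells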
# MT1-MMP act inh RFP = further read-out of MT1-MMP act inh, marked with its call; RFP signal change, %; measured here: RFP expression control read;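 0 = vehicle wells; hits needed this value within 50% of zero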
# The depositor's hits bear a star; i = inactive; u = inconclusive; x = no result given; & = joins results of further samples.
# Start of the listing, in advance (13 entries):
SMILES,Rce1 inhib,Env fusion inh,eIF4H FP inh,Yeast UUG start,PABP polyA inh,MT1-MMP act inh,MT1-MMP act inh RFP,CSC inhib,others
COC(=O)c1c(NC(=O)CC2Nc3cc(C)c(C)cc3NC2=O)sc(C)c1C (stereo unspecified),i,x,86*,-14,0.2*,-15,5,-7,eIF4H FP inh retest=90*;PABP polyA inh retest=102*
COc1ccc2nc(SC)cc(C)c2c1,i,-4,-12,x,0,0,4,-3,
CCCn1c(N)c(C(=O)CSc2nnc(C3CC3)n2-c2ccccc2)c(=O)[nH]c1=O,x,-7,x,-10,x,0,5,x,
Cc1nc2nc(-c3cccs3)cn2nc1C,i,-108,18,x,16,x,x,-12,
Cc1cc(C)c(S(=O)(=O)c2ccccc2)c(N(C)C)n1,i,x,-2,-12,-7,0,0,-7,
CCc1ccc2c(c1)NC(=O)C2(C)Cc1ccccc1C#N (stereo unspecified),x,11,x,-17,x,2,-1,x,
COc1cc2c3nnc(-c4ccc(F)cc4)c-3cn(Cc3ccc(F)cc3)c2cc1OC,i,-14,4,-3,-5,-3,-1,7,
O=C(COC(=O)c1c[nH]c2ccccc12)NC1CCCC1,x,-8,x,-18,x,-4,1,x,
O=C(c1cccc([N+](=O)[O-])c1)N1CCN(Cc2ccccc2)CC1,i,20,2,-3,-2,4,2,3,
Cc1nc2c(-c3ccc(F)cc3)cnn2c(N)c1-c1ccc(F)cc1,i,-446,-3,-21,0,8,0,21,
CC(=O)c1ccc(Nc2c([N+](=O)[O-])ccc3nonc23)cc1,i,-6,2,-7,2,7,5,-6,
CCOc1ccccc1NS(=O)(=O)c1c(C)noc1C,i,x,-8,-9,0,2,-8,-4,
CCCCn1c(=S)[nH]c2ncccc2c1=O,i,-19,5,-6,-4,3,7,2,

# All compounds of this part, repeating the preview:
SMILES,Rce1 inhib,Env fusion inh,eIF4H FP inh,Yeast UUG start,PABP polyA inh,MT1-MMP act inh,MT1-MMP act inh RFP,CSC inhib,others
COC(=O)c1c(NC(=O)CC2Nc3cc(C)c(C)cc3NC2=O)sc(C)c1C (stereo unspecified),i,x,86*,-14,0.2*,-15,5,-7,eIF4H FP inh retest=90*;PABP polyA inh retest=102*
COc1ccc2nc(SC)cc(C)c2c1,i,-4,-12,x,0,0,4,-3,
CCCn1c(N)c(C(=O)CSc2nnc(C3CC3)n2-c2ccccc2)c(=O)[nH]c1=O,x,-7,x,-10,x,0,5,x,
Cc1nc2nc(-c3cccs3)cn2nc1C,i,-108,18,x,16,x,x,-12,
Cc1cc(C)c(S(=O)(=O)c2ccccc2)c(N(C)C)n1,i,x,-2,-12,-7,0,0,-7,
CCc1ccc2c(c1)NC(=O)C2(C)Cc1ccccc1C#N (stereo unspecified),x,11,x,-17,x,2,-1,x,
COc1cc2c3nnc(-c4ccc(F)cc4)c-3cn(Cc3ccc(F)cc3)c2cc1OC,i,-14,4,-3,-5,-3,-1,7,
O=C(COC(=O)c1c[nH]c2ccccc12)NC1CCCC1,x,-8,x,-18,x,-4,1,x,
O=C(c1cccc([N+](=O)[O-])c1)N1CCN(Cc2ccccc2)CC1,i,20,2,-3,-2,4,2,3,
Cc1nc2c(-c3ccc(F)cc3)cnn2c(N)c1-c1ccc(F)cc1,i,-446,-3,-21,0,8,0,21,
CC(=O)c1ccc(Nc2c([N+](=O)[O-])ccc3nonc23)cc1,i,-6,2,-7,2,7,5,-6,
CCOc1ccccc1NS(=O)(=O)c1c(C)noc1C,i,x,-8,-9,0,2,-8,-4,
CCCCn1c(=S)[nH]c2ncccc2c1=O,i,-19,5,-6,-4,3,7,2,
O=C(NCCc1ccccc1)c1cccc(NC(=O)C2CCCCC2)c1,x,10,x,-6,x,3,1,x,
O=C(NCc1ccc(OC(F)(F)F)cc1)C12CN(Cc3ccccc3)CC1C(c1cccc([N+](=O)[O-])c1)=NO2 (stereo unspecified),i,-11,6,-6,-1,-18,-14,6,
COc1ccc(CCNC(=O)C2CCN(C(=O)NC3CCCCC3)CC2)cc1,i,-143,-6,-7,-10,-1,-5,-10,
CC1(C)CC(=O)C2=C(C1)N(c1cccnc1)C(N)=C(C#N)C2c1cccs1 (stereo unspecified),i,x,7,x,-5,4,4,5,
COc1ccc(S(=O)(=O)NC(C)C(=O)NCCN2CCOCC2)cc1Cl (stereo unspecified),i,2,-7,-4,-6,1,0,x,
COc1ccccc1C(=O)NC(=O)COC(=O)c1ccco1,i,6,x,9,x,1,5,4,
O=C(c1ccco1)N1N=C(c2ccccc2)CC1c1ccc2nccnc2c1 (stereo unspecified),i,-35,-12,-13,-5,-1,0,-7,
Cc1cc(NC(=O)CCC(=O)N(CCC(C)C)C(C(=O)NCC2CCCO2)c2ccccc2C)no1 (stereo unspecified),i,1,-18,21,-2,0,1,9,
Cc1cccc(CN2C(=O)N/C(=C/c3ccc(C)s3)C2=O)c1,i,x,69*,x,88*,-10,1,11,
O=C(COC(=O)c1cc(S(=O)(=O)N2CCOCC2)ccc1Cl)c1ccc[nH]1,x,49,x,-11,x,-2,-2,x,
CC(C)CNC(=O)c1cc(-c2ccc(Br)cc2)on1,i,x,-11,x,6,10,4,1,
CC(C)(C)n1nnnc1CN(Cc1cccnc1)Cc1ccccc1Cl,i,x,4,-19,-12,1,-2,-5,
Cn1cc(S(=O)(=O)c2ccccc2)c(=O)c2cc(Cl)ccc21,i,3,6,-21,0,2,-1,-9,
O=C(NCc1ccc(S(=O)(=O)NC2CCCCC2)s1)c1ccccc1,x,-18,5,x,-11,-1,-3,-12,
CC[C@@H](NCCCn1ccc(NC(=O)OCc2ccccc2)nc1=O)c1ccccc1,x,-61,x,-11,x,3,4,x,
CCc1c(C)nc2nc(NC(C)=O)[nH]n2c1=O,i,-10,-2,-15,5,-1,1,-5,
CCc1ccc(NC(=O)COC(=O)/C=C/c2c(C)nn(C3CCS(=O)(=O)C3)c2Cl)cc1 (stereo unspecified),i,16,-9,x,5,5,6,-1,
CCN(CC)CCCNC(=O)c1cc2c(=O)[nH]c3ccc(C)cc3c2s1,i,-11,2,3,4,4,-1,-3,
CCOC(=O)NN=C1c2ccccc2-c2ccccc21,i,-9,-5,-3,6,2,1,-13,
O=C(Cc1cccs1)Nc1nc(-c2ccccc2)cs1,i,20,-1,0,3,-7,-18,19,
Cc1cccc(NC(=O)CN2CCN(C(=O)C(C)Oc3ccc(C#N)cc3)CC2)c1C (stereo unspecified),x,13,x,10,x,4,-5,x,
O=C(Nc1ccccc1F)c1ccc2nc(N3C(=O)CCC3=O)sc2c1,i,-58,-9,-15,-6,-1,5,1,
Cc1cc(C)c2c(=O)cc(C(F)F)oc2c1,i,x,2,-11,-3,0,1,-5,
COC(=O)c1cc(S(=O)(=O)N2CCC(C)CC2)cn1C,i,0,x,-19,x,5,6,-1,
CNC(=S)NN(c1ccccc1)c1ccccc1,i,x,4,x,5,-1,-1,-6,
CC(NC(=O)Nc1ccc([N+](=O)[O-])cc1)C(c1cccs1)N1CCCC1 (stereo unspecified),i,-69,0,x,-9,-2,1,-2,
CCOC(=O)c1nn(-c2ccccc2)c(=O)cc1OCC(=O)Nc1cccc(OC)c1,i,-10,x,-16,x,-1,-2,9,
Cc1ccc(S(=O)(=O)N2CCCCC2CCNC(=O)C(=O)NCc2ccco2)cc1 (stereo unspecified),i,50,x,-14,x,-10,-16,8,
C[C@H](NC(=O)c1nc[nH]c1C(=O)N1CCc2ccccc2C1)C(=O)OCc1ccccc1,i,6,-1,-6,14,-3,6,8,
CCOC(=O)N1CCN(C(=O)c2ccc(NC(=O)c3ccc(C)cc3)cc2)CC1,i,x,-5,-4,-1,-4,-5,-6,
COc1ccc(S(=O)(=O)Nc2cccc3c2O[C@H](CN(C)C)[C@@H](C)CN([C@H](C)CO)C3=O)cc1,x,-8,x,-7&-6,x,-1,1,-16,
O=C(c1ccco1)N1CCN(S(=O)(=O)c2cc(Cl)ccc2Cl)CC1,i,1,-5,-6,-5,-5,-3,3,
CC(=O)N1c2ccc(S(=O)(=O)N(C)c3cc(C)ccc3C)cc2CC1C (stereo unspecified),i,-15,2,3,1,-1,-1,-2,
O=C(CSc1nnc(CNC(=O)c2ccccc2)o1)c1ccc(Cl)cc1,i,8,-15,-2,-3,-1,0,3,
CC1CN=C(N(C(=O)Nc2ccccc2)C(C)c2ccccc2)S1 (stereo unspecified),i,-2,-4,-23,-1,-3,3,-1,
CN(CCCN1CCOCC1)Cc1cn(C)nc1-c1ccccc1F,i,-2,1,1,-4,3,0,-13,
Cc1ccc(SCC(=O)N2CCCC2)cc1,i,-58,-2,-18,-10,-1,4,-14,

# Additional records.
SMILES,Rce1 inhib,Env fusion inh,eIF4H FP inh,Yeast UUG start,PABP polyA inh,MT1-MMP act inh,MT1-MMP act inh RFP,CSC inhib,others
COc1cc(OC)c(OC)cc1/C=C/c1cc(C(F)(F)F)[nH]c(=O)n1,i,29,u,13,u,-59,-5,-2,
N#CCCNS(=O)(=O)c1ccc(C(=O)OCC2CCCCC2)cc1,i,-18,-10,x,5,-1,-2,-10,
CCN(CC(N)=O)S(=O)(=O)c1ccc(F)cc1,i,11,-6,-25,0,-9,3,6,
COc1cc(NC(=O)Cc2ccc(Cl)cc2)ccc1NC(=O)c1ccco1,i,-15,-8,-5,3,5,-5,1,
CC1CCCCC1NC(=O)COC(=O)Cc1ccc(Br)cc1 (stereo unspecified),i,-10,-2,x,3,-1,3,2,
COc1ccc(C2=CC(=O)C[C@H](c3ccc(F)cc3)C2)cc1F,x,4,x,-13,x,8,1,40,
O=C(c1cccc(Cl)c1)N1CCN(C(=O)c2ccccc2F)CC1,i,x,2,3,-7,-3,-2,-2,
O=C(NCc1ccc(Cl)cc1)C1CCN(c2cnccn2)CC1,i,6,2,x,-2,-4,2,-4,
Cc1ccc(O)c(C(CC(=O)N2CCCC2)c2ccccc2)c1 (stereo unspecified),i,x,-11,x,3,-4,-1,-2,
O=C(OCc1nnc(-c2ccc([N+](=O)[O-])cc2)o1)c1ccc(F)c(S(=O)(=O)N2CCOCC2)c1,x,-7,x,-6,x,19,-2,x,
O=C(O)CCC(=O)N1c2ccccc2NC2=C(C(=O)CC(c3ccc(F)cc3)C2)C1c1ccc([N+](=O)[O-])o1 (stereo unspecified),i,-19,4,5,8,-5,-4,-19,
CN1C(=O)C2(NCCc3c2[nH]c2ccccc32)c2ccccc21 (stereo unspecified),i,x,6,-1,8,-3,2,-3,
CCC/C(O)=C1\C(=O)CC(C)(C)CC1=Nc1ccccc1OC,i,x,1,7,-6,3,-3,-12,
